# Hedgehog inh: blocks Sonic Hedgehog signaling. 2.1% of 22,000 active. inhibition, % (concentration not given with the values). Shh-LIGHT2 Gli-luciferase reporter, 30 h. AID 2313;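 active means replicate mean of 65% or more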;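 further: pathway switched on by Shh-conditioned medium diluted 1 in 25 in low serum; 100 nL library stock added to about 40 µL; 0% = median of neutral wells and 100% = positive control level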
# PD-1 reversal: reversal of PD-1 mediated T-cell inhibition. 29,000 tested, under 10 active. AID 2316. activation, % (concentration not given with the values). primary human CD4 T cells, PD-L1 beads, CellTiter-Glo 96 h;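 active means replicate mean of 50% or more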;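 further: 0% = median vehicle wells and 100% = positive control; 100 nL library stock added to about 50 µL; numbers are from one replicate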
# MITF inh: MITF inhibition | TRPM1 promoter luciferase, luminescence, 24 h | inhibition, % (concentration not given with the values) | 0.28% of 37,000 active | AID 2240;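 active means most replicates at 85% or more, or half of them and the mean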;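 further: human melanocyte line stably carrying TRPM1 promoter luciferase reporter; 0% = vehicle wells and 100% = a positive control; the first replicate is given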
# YB-1 expression: YB-1 expression inhibition; U2OS, qRT-PCR YB-1 vs CDIP delta delta Cp, 16 h; hits give high values; zero = DMSO, each unit about twofold; delta delta Cp (YB-1 minus CDIP) (test concentration not listed); 0.37% of 30,000 active;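 active means delta delta Cp rounded down to an integer at or above 3, about 3 SD of DMSO wells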;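 further: higher means less YB-1 transcript or more CDIP transcript relative to DMSO; stock transfer was 100 nL into about 100 µL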
# Starred values were filed as active, the others as inactive; · = no result given. A portion of the library, so the mix of outcomes need not match the whole.
# Each structure is followed by: Hedgehog inh, PD-1 reversal, MITF inh, YB-1 expression
> COC(=O)c1ccccc1NC(=O)Cn1c(=O)n(C)c(=O)c2ccccc21
    ·, -0.4, -14, ·
> C=CCNC(=S)N1N=C2c3ccccc3CCC2C1c1ccccc1Cl (stereo not drawn)
    ·, -0.9, 6, -0.17
> COc1ccc(S(=O)(=O)N(C)C[C@@H]2Oc3ccc(NC(=O)CCCCCC(=O)Nc4ccccc4N)cc3C(=O)N([C@@H](C)CO)C[C@H]2C)cc1
    ·, -0.8, -3, 0.11
> C[C@@H]1CN([C@H](C)CO)C(=O)c2cc(NC(=O)Nc3ccccc3)ccc2O[C@H]1CN(C)C(=O)Nc1ccc2c(c1)OCO2
    -21, 0.8, 14, -0.086
> O=C(NC(NCc1ccccn1)(C(F)(F)F)C(F)(F)F)c1cccnc1
    46, -2.9, -26, 0.6
> OC(COCC1COc2ccccc2O1)CN1CCOCC1 (stereo not drawn)
    ·, 0.8, -27, ·
> COc1ccc([N+](=O)[O-])cc1NC(=O)CCN1CCN(c2cccc(C(F)(F)F)c2)CC1
    ·, -2.9, 12, ·
> COc1ccc(S(=O)(=O)Nc2ccc3c(c2)CC(=O)N([C@@H](C)CO)C[C@H](C)[C@@H](CN(C)S(=O)(=O)c2ccccc2)O3)cc1
    -10, 1.4, -14, 0.027
> CC(=O)OCC(=O)[C@H]1CC[C@H]2[C@@H]3CCC4=CC(=O)CC[C@]4(C)[C@H]3CC[C@]12C
    61, -0.9, -20, -0.68
> C[C@H]1CN([C@@H](C)CO)C(=O)Cc2cc(NC(=O)C3CCCCC3)ccc2O[C@H]1CN(C)C(=O)Nc1ccc2c(c1)OCO2
    ·, -0.2, -11, 0.08
> C[C@H](CO)N1C[C@H](C)[C@H](CN(C)Cc2ccncc2)Oc2c(NC(=O)c3nc4ccccc4s3)cccc2C1=O
    24, -7.0, 13, 0.38
> COc1cc2[nH]c(=S)n(CCc3cnc[nH]3)c(=O)c2cc1OC
    ·, 2.3, -9, ·
> C[C@@H]1CN([C@H](C)CO)C(=O)Cc2cc(NS(=O)(=O)c3cn(C)cn3)ccc2O[C@@H]1CN(C)C(=O)Nc1ccc(C(F)(F)F)cc1
    7, 1.5, -10, -0.29
> C[C@@H]1CN([C@@H](C)CO)C(=O)c2cccc(NC(=O)Nc3ccc(C(F)(F)F)cc3)c2O[C@@H]1CN(C)C(=O)Nc1ccc(F)cc1
    -6, -1.1, 18, -0.093
> COc1ccc(NC(=O)N(C)C[C@@H]2Oc3c(NC(=O)Nc4c(C)noc4C)cccc3C(=O)N([C@H](C)CO)C[C@H]2C)cc1
    4, 1.2, 0, 0.2

# The list goes on.
# Each structure is followed by: Hedgehog inh, PD-1 reversal, MITF inh, YB-1 expression
> C[C@@H]1CN([C@H](C)CO)C(=O)Cc2cc(NC(=O)c3ccncc3)ccc2O[C@H]1CN(C)Cc1ccncc1
    -2, ·, -6, 0.016
> CNC[C@H]1Oc2ccc(NC(=O)Cc3ccccc3)cc2C(=O)N([C@@H](C)CO)C[C@H]1C
    ·, 1.2, -19, -0.22
> C[C@@H]1CN([C@@H](C)CO)C(=O)c2cc(NS(=O)(=O)c3ccccc3)ccc2O[C@@H]1CN(C)C(=O)Nc1ccc(C(F)(F)F)cc1
    ·, -2.2, 16, 0.12
> CCOC(=O)c1ccc(NC(=O)Cn2c(=O)oc3ccccc32)cc1
    ·, 1.2, 3, ·
> COC(=O)C1=CC(O[C@@H]2O[C@H](CO)[C@@H](O)[C@H](O)[C@H]2O)=C[C@H]2[C@]3(C)C[C@@H](c4ccoc4)OC(=O)[C@H]3CC[C@@]12C
    7, ·, ·, 0.72
> C[C@@H]1CN([C@@H](C)CO)C(=O)c2cc(NS(=O)(=O)c3ccc(F)cc3)ccc2O[C@@H]1CN(C)Cc1ccncc1
    -3, -0.5, -12, 0.43
> C[C@@H]1CN([C@H](C)CO)C(=O)c2cccc(NC(=O)C3CCOCC3)c2O[C@@H]1CN(C)S(=O)(=O)c1cn(C)cn1
    7, 3.8, -15, -0.58
> C=C1C(N)CC2CC1C2(C)C (stereo not drawn)
    9, ·, -9, 0.33
> COc1ccc(S(=O)(=O)N(C)C[C@@H]2Oc3c(NC(=O)c4cnccn4)cccc3C(=O)N([C@H](C)CO)C[C@@H]2C)cc1
    16, 0.7, -28, 0.0005
> C[C@H]1CN([C@@H](C)CO)C(=O)c2cc(NC(=O)Nc3cccc4ccccc34)ccc2O[C@@H]1CN(C)Cc1ccc(Oc2ccccc2)cc1
    14, -4.4, -6, 0.13
> COc1ccc(-c2nnc(SCC(=O)c3ccc(C)o3)o2)cc1
    ·, -0.6, -41, ·
> O=C(CSc1nnc(-c2ccc(Cl)cc2)n1-c1ccc(F)cc1)N1CCOCC1
    ·, 3.1, -11, ·
> Cc1noc(C)c1NC(=O)Nc1ccc2c(c1)C(=O)N([C@@H](C)CO)C[C@@H](C)[C@H](CN(C)Cc1ccc(Cl)c(Cl)c1)O2
    ·, 0.9, 10, 0.028
> CCc1nc(SCC(=O)Nc2cccc(C(F)(F)F)c2)c(C#N)cc1C
    ·, 1.8, -4, ·
> C[C@H]1CN([C@@H](C)CO)C(=O)c2cccc(NC(=O)c3cnccn3)c2O[C@@H]1CN(C)C(=O)Nc1ccccc1
    -63, 1.5, -15, 0.34

# (cont.)
# Each structure is followed by: Hedgehog inh, PD-1 reversal, MITF inh, YB-1 expression
> Cc1ccc(C)c(NC(=O)CCCn2cc([N+](=O)[O-])cn2)c1
    ·, -2.4, 11, ·
> C[C@@H]1CN([C@H](C)CO)C(=O)c2cccc(NS(=O)(=O)c3ccccc3)c2O[C@@H]1CN(C)CC1CCCCC1
    -25, 1.6, -18, -0.39
> Cc1ccc(-c2nn(C(C)(C)C)c3ncnc(N)c23)cc1
    -3, ·, 6, 0.24
> O=C(Nc1c(C(=O)NCc2ccco2)cnn1-c1ccccc1)c1cccc(F)c1
    ·, 0.2, -13, ·
> C[C@H]1CN([C@@H](C)CO)C(=O)Cc2cc(NC(=O)Cc3ccccc3)ccc2O[C@@H]1CN(C)Cc1ccc(Oc2ccccc2)cc1
    16, -0.9, 9, 0.12
> C[C@@H]1CN([C@H](C)CO)C(=O)c2cc(NC(=O)Nc3ccc(F)cc3)ccc2O[C@H]1CN(C)S(=O)(=O)c1cn(C)cn1
    -10, -0.1, -12, 0.25
> O=C(c1ccc(NS(=O)(=O)c2cccc3cccnc23)cc1)N1CCOCC1
    ·, 0.1, -2, ·
> CCC(Sc1nnc2c3ccccc3n(C)c2n1)C(=O)Nc1ncccc1Cl (stereo not drawn)
    ·, -7.3, 28, ·
> CC(=O)c1c(O)cc(O[C@@H]2O[C@H](CO)[C@@H](O)[C@H](O)[C@H]2O)cc1O
    20, ·, ·, 0.21
> Cc1ccc(C)c(NC(=O)C2CN(S(=O)(=O)c3ccccc3)CCN2S(=O)(=O)c2ccccc2)c1 (stereo not drawn)
    ·, -1.0, -1, ·
> C[C@@H]1CN([C@H](C)CO)C(=O)Cc2cc(NS(=O)(=O)c3ccccc3)ccc2O[C@@H]1CN(C)Cc1ccc2c(c1)OCO2
    51, -0.9, -5, 0.74
> COc1ccc(C(=O)CSc2nc(C)[nH]c2[N+](=O)[O-])cc1Br
    ·, -2.3, 10, ·
> Cn1c(SCc2nc(-c3ccccc3)no2)nnc1-c1ccco1
    ·, -0.1, -2, ·
> COc1ccc(CN(C)C[C@H]2Oc3ccc(NC(=O)NC(C)C)cc3C(=O)N([C@H](C)CO)C[C@H]2C)cc1
    -17, ·, -3, -0.38
> C[C@@H]1CN([C@@H](C)CO)C(=O)Cc2cc(N(C)C)ccc2O[C@@H]1CN(C)Cc1ccncc1
    -18, -1.2, -4, 0.53

# Continued.
Molecule | Hedgehog inh | PD-1 reversal | MITF inh | YB-1 expression
CC(=O)Nc1ccccc1-c1nnc(SCc2ccccc2Cl)[nH]c1=O | · | 0.3 | -4 | ·
C[C@@H]1CCCCO[C@@H](CN(C)C(=O)NC2CCCCC2)[C@@H](C)CN([C@H](C)CO)C(=O)c2cc(NC(=O)Nc3cccc4ccccc34)ccc2O1 | · | 0.2 | 10 | -0.88
C[C@H](CO)N1C[C@H](C)[C@H](CN(C)S(=O)(=O)c2ccc(Cl)cc2)Oc2c(NS(=O)(=O)c3cccs3)cccc2C1=O | 77* | -0.8 | 12 | 0.081
C[C@@H]1CCCCO[C@@H](CN(C)S(=O)(=O)c2cn(C)cn2)[C@@H](C)CN([C@H](C)CO)C(=O)c2cc(NC(=O)Nc3cccc4ccccc34)ccc2O1 | 45 | 2.1 | -10 | 0.11
C[C@H](CO)N1C[C@H](C)[C@H](CN(C)S(C)(=O)=O)Oc2ccc(NC(=O)Nc3ccc4c(c3)OCO4)cc2CC1=O | 6 | · | 6 | -0.22
Cc1cc(C(=O)Nc2cccc3c2O[C@@H](CN(C)Cc2ccc4c(c2)OCO4)[C@@H](C)CN([C@H](C)CO)C3=O)n(C)n1 | 2 | -0.5 | -10 | 0.32
COc1ccc(S(=O)(=O)Nc2ccc3c(c2)CC(=O)N([C@@H](C)CO)C[C@H](C)[C@H](CN(C)C)O3)cc1 | -11 | 0.7 | -13 | 0.091
Cc1ccc2oc3c(c(=O)c2c1)C(c1ccc(OCC(N)=O)cc1)N(c1nc(C)c(C)s1)C3=O (stereo not drawn) | · | 0.5 | 6 | ·
COc1ccc(-c2nc(Nc3nc(C)cc(C)n3)n[nH]2)cc1OC | · | 1.7 | -121 | ·
COc1ccc(NC(=O)Nc2cccc3c2O[C@H](CN(C)Cc2ccc(C(F)(F)F)cc2)[C@H](C)CN([C@@H](C)CO)C3=O)cc1 | -20 | 0.0 | -17 | 0.18
COc1c(CC=C(C)C)c2c(c3oc(=O)c(-c4ccc(OC(C)=O)cc4)c(OC(C)=O)c13)C=CC(C)(C)O2 | -43 | -0.5 | 24 | -0.42
Fc1ccccc1-c1nnc(SCc2ccc(Br)cc2)n1Cc1ccco1 | · | -2.2 | 30 | ·
COc1ccc(S(=O)(=O)Nc2ccc3c(c2)C(=O)N([C@H](C)CO)C[C@H](C)[C@H](CN(C)S(=O)(=O)c2ccc(Cl)cc2)O3)cc1 | -12 | 0.9 | -16 | -0.16
Cc1noc(C)c1NC(=O)N(C)C[C@H]1Oc2c(NC(=O)Nc3ccc4c(c3)OCO4)cccc2C(=O)N([C@H](C)CO)C[C@@H]1C | -19 | 0.3 | 0 | -0.64
Cn1cnnc1SCCCN1C(=O)c2cccc3cccc(c23)C1=O | · | 0.2 | -16 | ·
CCOC(=O)c1cc(C#N)c(N2CCN(C(=O)c3snnc3C)CC2)nc1C(F)(F)F | 26 | -0.8 | 12 | 0.089
COc1ccc(-c2nnc(SCC(=O)N3c4ccccc4Sc4ccccc43)n2C)cc1 | · | 0.3 | 27 | ·
Cc1noc(C)c1NC(=O)N(C)C[C@@H]1Oc2ccc(NS(=O)(=O)c3cccs3)cc2CC(=O)N([C@@H](C)CO)C[C@@H]1C | -9 | · | -13 | 15*
C[C@H]1CN([C@@H](C)CO)C(=O)Cc2cc(NC(=O)c3ccncc3)ccc2O[C@@H]1CN(C)C(=O)Nc1ccccc1 | -13 | 2.0 | -20 | -0.024
C[C@@H]1CN([C@@H](C)CO)C(=O)c2cccc(NC(=O)Nc3ccc(C(F)(F)F)cc3)c2O[C@H]1CN(C)Cc1ccc(-c2ccccc2)cc1 | 4 | -1.0 | 31 | 0.023
Cc1cc(C)c(NC(=O)C(C)N(c2ccccc2)S(C)(=O)=O)c(C)c1 (stereo not drawn) | · | 1.6 | -8 | ·
Cc1ccc(NC(=O)COc2ccc(CO)cc2Br)cc1 | · | -2.7 | -17 | ·
C[C@@H]1CN([C@H](C)CO)C(=O)c2cc(NC(=O)C3CCCCC3)ccc2O[C@H]1CN(C)C(=O)Nc1ccc(F)cc1 | -3 | · | -1 | -0.22
C[C@H](CO)N1C[C@H](C)[C@H](CN(C)C(=O)NC2CCCCC2)Oc2ccc(NC(=O)CCC(F)(F)F)cc2C1=O | · | -0.7 | 4 | -0.59
CCN(CC(=O)Nc1ccccc1)S(=O)(=O)c1ccc(OC)cc1 | · | 1.8 | -2 | ·
C[C@@H]1CN([C@@H](C)CO)C(=O)c2cccc(NC(=O)C3CC3)c2O[C@@H]1CN(C)Cc1ccc2c(c1)OCO2 | -17 | -1.5 | -7 | 1.2
CCN(CC)c1ncc2c(=S)[nH]c(=S)[nH]c2n1 | 2 | -0.1 | 0 | -0.32
COc1cc(O)c(C(=O)CCc2ccccc2)c(O)c1Cc1ccccc1O | 5 | -0.4 | 108* | 0.056

# Four entries from above in another layout:
SMILES: COC(=O)C1=CC(O[C@@H]2O[C@H](CO)[C@@H](O)[C@H](O)[C@H]2O)=C[C@H]2[C@]3(C)C[C@@H](c4ccoc4)OC(=O)[C@H]3CC[C@@]12C
  Hedgehog inh: 7; PD-1 reversal: ·; MITF inh: ·; YB-1 expression: 0.72
SMILES: C=C1C(N)CC2CC1C2(C)C (stereo not drawn)
  Hedgehog inh: 9; PD-1 reversal: ·; MITF inh: -9; YB-1 expression: 0.33
SMILES: Cc1ccc(-c2nn(C(C)(C)C)c3ncnc(N)c23)cc1
  Hedgehog inh: -3; PD-1 reversal: ·; MITF inh: 6; YB-1 expression: 0.24
SMILES: Cc1ccc2oc3c(c(=O)c2c1)C(c1ccc(OCC(N)=O)cc1)N(c1nc(C)c(C)s1)C3=O (stereo not drawn)
  Hedgehog inh: ·; PD-1 reversal: 0.5; MITF inh: 6; YB-1 expression: ·

# Source: PubChem BioAssay
